Bioassay records: PubChem BioAssay, Broad Institute
UUG fidelity – modulators of start codon recognition fidelity in yeast; S. cerevisiae UUG-firefly luciferase reporter, luminescence/redox ratio; activity score, % at 18.7 µM; hit rate 0.13% among 350,000; AID 602363;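 active = replicate mean at a twofold rise or more, about +100% in these data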;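 note: firefly luciferase made from a UUG start codon reports start codon fidelity; reporter light over untreated wells divided by growth signal over untreated wells; some hits fall short of that in this replicate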
Env fusion inh – blocks HIV Env-driven cell-cell fusion | AID 651610 | inhibition, % at 12.3 µM | hit rate 1.1% among 360,000 | HeLa-JRFL Env/CEM21 cell fusion, luciferase;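 active = mean replicate inhibition score of at least 50 and every replicate individually at or above 50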;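 note: 0% = plate neutral controls and 100% = maraviroc near 300 nM; one replicate is shown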
The depositor's hits bear a star; [ ] = another dose, or the depositor's remark. This is a subset (hit frequency here may not be typical).

SMILES | UUG fidelity | Env fusion inh
C[C@H](CO)N1C[C@H](C)[C@@H](CN(C)Cc2ccc(Oc3ccccc3)cc2)Oc2c(NC(=O)Nc3ccc(C(F)(F)F)cc3)cccc2C1=O | -16 | 0[16.7 µM]
CN(C)C(=O)C[C@@H]1CC[C@H](NS(=O)(=O)c2ccccc2)[C@@H](CO)O1 | -3 | 38[16.7 µM]
C[C@H](NC(=O)C[C@H]1CC[C@H]2[C@@H](COC[C@@H](O)CN2Cc2ccc(C(F)(F)F)cc2)O1)c1ccccc1 | 16 | 27[16.7 µM]
C[C@@H]1CN([C@H](C)CO)S(=O)(=O)c2ccc(-c3cncnc3)cc2O[C@H]1CN(C)C(=O)Cc1ccccc1 | -7 | 2[16.7 µM]
C[C@@H]1CN([C@@H](C)CO)C(=O)Cc2cc(NC(=O)CCCCCC(=O)Nc3ccccc3N)ccc2O[C@H]1CN(C)S(=O)(=O)c1ccc(F)cc1 | -12 | -38[16.7 µM]
C[C@H]1CCCCO[C@@H](CN(C)S(=O)(=O)c2cccs2)[C@@H](C)CN([C@@H](C)CO)C(=O)c2cc(NC(=O)Nc3ccc(F)cc3)ccc2O1 | -7 | 2[16.7 µM]
CCS(=O)(=O)NCC[C@@H]1CC[C@@H](NC(=O)C2CCC2)[C@H](CO)O1 | -2 | 0[16.7 µM]
COc1ccc(S(=O)(=O)Nc2ccc3c(c2)CC(=O)N([C@@H](C)CO)C[C@H](C)[C@H](CN(C)Cc2ccc(Oc4ccccc4)cc2)O3)cc1 | 2 | -21[16.7 µM]
CCCN1C[C@H](C)[C@@H](OC)CN(C)C(=O)c2ccc(NC(=O)COC)cc2OC[C@H]1C | -2 | -14[16.7 µM]
Cc1ccc(S(=O)(=O)Nc2ccc3c(c2)C(=O)N([C@H](C)CO)C[C@H](C)[C@@H](CN(C)S(=O)(=O)c2ccccc2)O3)cc1 | 11 | 11[16.7 µM]
O=C(C[C@H]1C[C@@H]2c3cc(NC(=O)C4CCOCC4)ccc3O[C@@H]2[C@H](CO)O1)NCC1CC1 | 2 | -4[16.7 µM]
C[C@@H]1CN([C@@H](C)CO)C(=O)Cc2cc(NS(=O)(=O)c3cccs3)ccc2O[C@@H]1CN(C)C(=O)Nc1ccc2c(c1)OCO2 | 11 | -12[16.7 µM]
Cc1ccc(-c2ccc3c(c2)O[C@@H](CN(C)Cc2ccc(C(=O)O)cc2)[C@H](C)CN([C@H](C)CO)S3(=O)=O)cc1 | -4 | -2[16.7 µM]
COc1ccc(CN(C)C[C@@H]2OCCCC[C@@H](C)Oc3ccc(NC(=O)c4ccccc4)cc3C(=O)N([C@@H](C)CO)C[C@@H]2C)cc1 | 4 | -21[16.7 µM]
CC(C)NC(=O)N(C)C[C@@H]1OCCCC[C@@H](C)Oc2ccc(NS(=O)(=O)c3cn(C)cn3)cc2C(=O)N([C@@H](C)CO)C[C@H]1C | -10 | -30[16.7 µM]
C[C@@H]1CN([C@H](C)CO)C(=O)Cc2cc(NC(=O)NC3CCCCC3)ccc2O[C@H]1CN(C)C(=O)Nc1ccc2c(c1)OCO2 | 14 | 3[16.7 µM]
COCC(=O)N(C)C[C@H]1Oc2ncc(C#Cc3ccncc3)cc2C(=O)N([C@H](C)CO)C[C@@H]1C | 4 | -8[16.7 µM]
C[C@H]1CN([C@@H](C)CO)C(=O)Cc2cc(NC(=O)CCC(F)(F)F)ccc2O[C@@H]1CN(C)Cc1ccc(Cl)c(Cl)c1 | -3 | -3[16.7 µM]
CCCN(C)C[C@H]1OCCCC[C@@H](C)Oc2ccc(NS(=O)(=O)c3ccc(OC)cc3)cc2C(=O)N([C@H](C)CO)C[C@@H]1C | 3 | -4[16.7 µM]
Cc1noc(C)c1S(=O)(=O)N(C)C[C@H]1Oc2ccc(NC(=O)Nc3ccc4c(c3)OCO4)cc2CC(=O)N([C@H](C)CO)C[C@@H]1C | 5 | 18[16.7 µM]
C[C@@H]1CCCCO[C@@H](CN(C)S(=O)(=O)c2ccc(Cl)cc2)[C@H](C)CN([C@H](C)CO)C(=O)c2cc(NC(=O)NC3CCCCC3)ccc2O1 | 2 | 17[16.7 µM]
CO[C@@H]1CN(C)C(=O)c2ccc(NC(=O)Nc3ccc4c(c3)OCO4)cc2OC[C@H](C)NC[C@@H]1C | 2 | -18[16.7 µM]
C[C@H]1CN([C@@H](C)CO)C(=O)c2cccc(NS(=O)(=O)c3ccc(F)cc3)c2O[C@@H]1CN(C)C(=O)Nc1ccc(C(F)(F)F)cc1 | 1 | 0[16.7 µM]
COc1ccc(CN(C)C[C@H]2OCCCC[C@H](C)Oc3ccc(NC(=O)Nc4ccccc4)cc3C(=O)N([C@H](C)CO)C[C@H]2C)cc1 | 21 | -44[16.7 µM]
Cc1ccc(S(=O)(=O)Nc2ccc3c(c2)C(=O)N([C@H](C)CO)C[C@@H](C)[C@H](CN(C)S(=O)(=O)c2cccs2)OCCCC[C@H](C)O3)cc1 | 2 | -14[16.7 µM]
C[C@H](CO)N1C[C@H](C)[C@H](CN(C)C(=O)Nc2cccc3ccccc23)Oc2ccc(NC(=O)Nc3ccc(F)cc3)cc2CC1=O | 30 | -10[16.7 µM]
C[C@@H]1CN([C@H](C)CO)C(=O)c2cc(NC(=O)Nc3cccc4ccccc34)ccc2O[C@@H](C)CCCCO[C@H]1CN(C)S(=O)(=O)c1ccc(F)cc1 | -11 | -4[16.7 µM]
COc1cccc(S(=O)(=O)N[C@H]2CC[C@H](CC(=O)NCc3ccccc3)O[C@@H]2CO)c1 | -4 | -16[16.7 µM]
CCCNC(=O)C[C@H]1C[C@H]2c3cc(NC(=O)Cc4ccncc4)ccc3O[C@H]2[C@H](CO)O1 | 11 | 88*[16.7 µM]
O=C(C[C@H]1C[C@H]2c3cc(NC(=O)C4CCOCC4)ccc3O[C@H]2[C@@H](CO)O1)NCc1ccncc1 | -11 | 9[16.7 µM]
Cc1ccc(S(=O)(=O)N(C)C[C@@H]2Oc3c(NS(=O)(=O)c4cccs4)cccc3C(=O)N([C@H](C)CO)C[C@H]2C)cc1 | 7 | -33[16.7 µM]
O=C(C[C@@H]1CC[C@@H](NC(=O)Nc2ccc(C(F)(F)F)cc2)[C@@H](CO)O1)NCc1ccccn1 | -14 | -7[16.7 µM]
COc1ccc(-c2cn(CCNC(=O)[C@H](Cc3ccccc3)NS(=O)(=O)c3ccc(C)cc3)nn2)cc1OC | 67 | -10[16.7 µM]
C[C@H]1CN([C@@H](C)CO)S(=O)(=O)c2ccc(C#CC3CC3)cc2O[C@H]1CN(C)C(=O)c1ccccc1 | 8 | 30[16.7 µM]
C[C@H]1CN([C@@H](C)CO)C(=O)Cc2cc(NS(C)(=O)=O)ccc2O[C@H]1CN(C)Cc1ccc(C(=O)Nc2ccccc2N)cc1 | -8 | -11[16.7 µM]
CO[C@@H]1CN(C)C(=O)c2ccc(NC(=O)c3ccccc3F)cc2OC[C@H](C)NC[C@@H]1C | -15 | 11[16.7 µM]
O=C(N[C@H]1CC[C@@H](CCn2cc(-c3ccccn3)nn2)O[C@@H]1CO)c1ccc(F)cc1 | -18 | 11[16.7 µM]
Cc1noc(C)c1S(=O)(=O)N(C)C[C@@H]1Oc2ccc(NS(=O)(=O)c3ccccc3)cc2CC(=O)N([C@@H](C)CO)C[C@@H]1C | -11 | -3[16.7 µM]
C[C@@H]1CN([C@H](C)CO)C(=O)c2cc(N(C)C)ccc2O[C@@H]1CN(C)Cc1ccc(C(=O)O)cc1 | 8 | 1[16.7 µM]
C[C@H](CO)N1C[C@H](C)[C@H](CN(C)S(=O)(=O)c2cn(C)cn2)Oc2ccc(NC(=O)Nc3cccc4ccccc34)cc2CC1=O | -8 | -8[16.7 µM]
O=C(C[C@H]1CC[C@H](NC(=O)Nc2cccc(F)c2)[C@H](CO)O1)NCC1CC1 | -1 | 13[16.7 µM]
C[C@@H]1CCCCO[C@@H](CN(C)C(=O)Cc2ccccc2)[C@@H](C)CN([C@@H](C)CO)C(=O)c2cc(NS(=O)(=O)c3cn(C)cn3)ccc2O1 | 6 | -4[16.7 µM]
O=C(C[C@H]1CC[C@@H]2[C@H](COC[C@H](O)CN2C(=O)C2CC2)O1)NCc1ccccc1Cl | 2 | -7[16.7 µM]
Cc1ccc(S(=O)(=O)N(C)C[C@H]2Oc3ncc(-c4ccccc4)cc3C(=O)N([C@H](C)CO)C[C@@H]2C)cc1 | -4 | 34[16.7 µM]
Cc1noc(C)c1S(=O)(=O)Nc1ccc2c(c1)C(=O)N([C@@H](C)CO)C[C@@H](C)[C@H](CN(C)S(C)(=O)=O)O2 | -3 | 24[16.7 µM]

As entered above.
C[C@@H]1CCCCO[C@@H](CN(C)S(=O)(=O)c2ccc(Cl)cc2)[C@H](C)CN([C@H](C)CO)C(=O)c2cc(NC(=O)NC3CCCCC3)ccc2O1 in UUG fidelity is listed with 2
C[C@H]1CCCCO[C@@H](CN(C)S(=O)(=O)c2cccs2)[C@@H](C)CN([C@@H](C)CO)C(=O)c2cc(NC(=O)Nc3ccc(F)cc3)ccc2O1 in Env fusion inh is listed with 2[16.7 µM]
CC(C)NC(=O)N(C)C[C@@H]1OCCCC[C@@H](C)Oc2ccc(NS(=O)(=O)c3cn(C)cn3)cc2C(=O)N([C@@H](C)CO)C[C@H]1C in Env fusion inh is listed with -30[16.7 µM]
C[C@H]1CN([C@@H](C)CO)C(=O)Cc2cc(NS(C)(=O)=O)ccc2O[C@H]1CN(C)Cc1ccc(C(=O)Nc2ccccc2N)cc1 in Env fusion inh is listed with -11[16.7 µM]
O=C(C[C@H]1C[C@@H]2c3cc(NC(=O)C4CCOCC4)ccc3O[C@@H]2[C@H](CO)O1)NCC1CC1 in Env fusion inh is listed with -4[16.7 µM]

The results go on:
SMILES | UUG fidelity | Env fusion inh
C[C@@H]1CN([C@@H](C)CO)C(=O)c2cc(C3=CCCCC3)cnc2O[C@@H]1CN(C)S(=O)(=O)c1cn(C)cn1 | -9 | 25[16.7 µM]
C[C@H]1CN([C@@H](C)CO)C(=O)c2cc(C#CC(C)(C)O)cnc2O[C@@H]1CN(C)C(=O)C1CCOCC1 | 1 | 1[16.7 µM]
C[C@@H]1CN([C@@H](C)CO)C(=O)c2cc(-c3ccccc3F)cnc2O[C@H]1CN(C)C(=O)C1CCC1 | -5 | 29[16.7 µM]
C[C@@H]1CN([C@@H](C)CO)C(=O)c2cc(-c3ccccc3F)cnc2O[C@@H]1CN(C)C(=O)C1CCC1 | 5 | 14[16.7 µM]
C[C@H]1CCCCO[C@H](CN(C)CC2CC2)[C@@H](C)CN([C@@H](C)CO)C(=O)c2cc(NC(=O)c3ccncc3)ccc2O1 | 1 | 19[16.7 µM]
O=C(C[C@@H]1C[C@H]2c3cc(NC(=O)C4CCOCC4)ccc3O[C@H]2[C@H](CO)O1)NCc1ccccc1 | 0 | 15[16.7 µM]
COc1cccc(-c2ccc3c(c2)O[C@H](CN(C)C(=O)C2CCCCC2)[C@@H](C)CN([C@H](C)CO)S3(=O)=O)c1 | 4 | -11[16.7 µM]
Cc1ccc(S(=O)(=O)Nc2cccc3c2O[C@@H](CN(C)C(=O)Nc2c(C)noc2C)[C@H](C)CN([C@@H](C)CO)C3=O)cc1 | -2 | 1[16.7 µM]
C[C@H]1CN([C@@H](C)CO)C(=O)Cc2cc(NS(=O)(=O)c3ccccc3)ccc2O[C@H]1CN(C)S(=O)(=O)c1cn(C)cn1 | 5 | -3[16.7 µM]
C[C@@H]1CN([C@@H](C)CO)C(=O)c2cc(NS(=O)(=O)c3ccc(Cl)cc3)ccc2O[C@@H](C)CCCCO[C@@H]1CN(C)C | 2 | -2[16.7 µM]
C[C@H](CO)N1C[C@H](C)[C@@H](CN(C)C(=O)c2ccccn2)Oc2ncc(-c3ccccc3F)cc2C1=O | 5 | -6[16.7 µM]
C[C@@H]1CCCCO[C@H](CN(C)C(=O)NC2CCCCC2)[C@@H](C)CN([C@H](C)CO)C(=O)c2cc(NC(=O)CCC(F)(F)F)ccc2O1 | 10 | 11[16.7 µM]
O=C(O)C[C@@H]1C=C[C@@H](NC(=O)Nc2ccccc2)[C@H](CO)O1 | -10 | 58*[16.7 µM]
COc1ccc(S(=O)(=O)N(C)C[C@@H]2Oc3ccc(NS(=O)(=O)c4ccccc4)cc3C(=O)N([C@H](C)CO)C[C@H]2C)cc1 | -3 | -14[16.7 µM]
C[C@@H]1CN([C@@H](C)CO)C(=O)c2cc(NS(=O)(=O)c3ccc(Cl)cc3)ccc2O[C@@H](C)CCCCO[C@@H]1CN(C)Cc1ccncc1 | 7 | 11[16.7 µM]

A different layout for some results above:
C[C@@H]1CCCCO[C@H](CN(C)C(=O)NC2CCCCC2)[C@@H](C)CN([C@H](C)CO)C(=O)c2cc(NC(=O)CCC(F)(F)F)ccc2O1
  UUG fidelity: 10	Env fusion inh: 11[16.7 µM]

O=C(O)C[C@@H]1C=C[C@@H](NC(=O)Nc2ccccc2)[C@H](CO)O1
  UUG fidelity: -10	Env fusion inh: 58*[16.7 µM]

(list continues)
SMILES | UUG fidelity | Env fusion inh
CCCC(=O)Nc1ccc2c(c1)C(=O)N(C)C[C@H](OC)[C@@H](C)CN(C(=O)c1ccncc1)[C@H](C)CO2 | -11 | 3[16.7 µM]
C[C@H](CO)N1C[C@H](C)[C@H](CN(C)Cc2cncnc2)Oc2ncc(/C=C/c3ccccc3)cc2C1=O | -3 | -3[16.7 µM]
CC(C)NC(=O)Nc1ccc2c(c1)C(=O)N([C@H](C)CO)C[C@@H](C)[C@@H](CN(C)C(=O)Nc1ccccc1)O2 | 5 | -2[16.7 µM]
O=C(C[C@@H]1C=C[C@H](NC(=O)Nc2cc(F)ccc2F)[C@@H](CO)O1)Nc1ccccc1 | -16 | 7[16.7 µM]
Cc1ccc(S(=O)(=O)Nc2ccc3c(c2)C(=O)N([C@H](C)CO)C[C@@H](C)[C@@H](CN(C)CC2CCCCC2)OCCCC[C@H](C)O3)cc1 | 27 | 15[16.7 µM]
O=C(C[C@H]1CC[C@@H](NS(=O)(=O)c2ccccc2)[C@@H](CO)O1)NCCN1CCCCC1 | -11 | -9[16.7 µM]
C[C@H]1CN([C@@H](C)CO)C(=O)c2cc(C3=CCCC3)cnc2O[C@H]1CN(C)C(=O)C1CCCCC1 | -6 | 14[16.7 µM]
